AID923 = qHTS Assay for Allosteric/Competitive Inhibitors of Caspase-1: Spectroscopic Profiling in AFC Spectral Region; compound fluorescence, AFC spectral region (405/520 nm); almost no hit is shown here; Potency, µM (top dose mostly 57.5 µM), without a hit: top-dose fluorescence increase, hits mostly activators; 1.1% of 75,000 active; active = well fitted activation curve with a large enough effect; inconclusive = small, poorly fitted or top-dose-only effect;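 also: potency is read from the fitted curve at half-maximal effect; 0% is about no effect; scaled to a free AFC standard on each plate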
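Compound autofluorescence profiled at 405 nm ex/520 nm em during kinetic caspase 1 run (50 nM enzyme, 5 uM Ac-WEHD-AFC, HEPES pH 7.5, 10 mM DTT). Titration up to 57 uM; baseline from regression intercept, normalized to AFC standard curve.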
TSHR agonist = activates the human thyroid stimulating hormone receptor; P16473; HEK293-CNG-TSHR cells (CNG channel as cAMP sensor), membrane potential dye, cAMP; Potency, µM (highest dose often 57.1 µM), without a hit: at the highest dose activation, actives largely listed as activators; 0.48% of 73,000 active; active = well fitted activation curve of enough size with the parental cells flat; inconclusive = any curve in the parental cells; inactive = parental cells flat and receptor cells flat or falling; also: potency is read from the fitted curve at half-maximal effect; % of control where 0% means no effect; weak receptor curves with flat parental cells got no call and are not listed
Target sequence (P16473 whole entry, looked up): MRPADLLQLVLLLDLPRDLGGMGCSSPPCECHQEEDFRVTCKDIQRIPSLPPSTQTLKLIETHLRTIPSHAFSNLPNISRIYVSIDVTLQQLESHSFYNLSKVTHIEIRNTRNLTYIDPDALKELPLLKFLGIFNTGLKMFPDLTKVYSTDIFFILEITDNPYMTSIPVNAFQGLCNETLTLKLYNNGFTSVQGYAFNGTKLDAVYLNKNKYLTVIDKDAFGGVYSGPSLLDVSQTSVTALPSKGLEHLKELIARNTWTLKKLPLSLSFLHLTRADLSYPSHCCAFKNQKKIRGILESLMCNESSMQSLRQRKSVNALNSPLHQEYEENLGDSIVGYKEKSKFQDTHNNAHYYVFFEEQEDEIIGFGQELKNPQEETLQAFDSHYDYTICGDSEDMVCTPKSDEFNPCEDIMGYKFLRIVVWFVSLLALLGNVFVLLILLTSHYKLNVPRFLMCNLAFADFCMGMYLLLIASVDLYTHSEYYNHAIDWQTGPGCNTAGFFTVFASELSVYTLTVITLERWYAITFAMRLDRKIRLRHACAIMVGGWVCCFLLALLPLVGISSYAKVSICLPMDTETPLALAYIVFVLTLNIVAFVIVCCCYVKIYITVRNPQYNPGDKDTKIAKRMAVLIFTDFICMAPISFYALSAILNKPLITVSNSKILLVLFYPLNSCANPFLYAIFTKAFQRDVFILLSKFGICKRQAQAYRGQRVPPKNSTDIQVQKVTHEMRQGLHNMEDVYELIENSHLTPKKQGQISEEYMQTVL
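HEK 293 cells stably expressing TSHR and a modified CNG channel, with CNG-only parental cells as counterscreen, were preloaded 60 min at room temperature with membrane potential dye containing 100 uM RO 20-1724. Compound exposure was 30 min, and depolarization was read as fluorescence at 590 nm.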
Resorufin autofl = compound fluoresces in the resorufin spectral region; AID 588; max dye-equivalent concentration, M; Compound fluorescence, resorufin region 547/598 nm, buffer; hits give high values; 0.04% of 59,000 active; active = above 10 nM dye equivalent; inconclusive = 1 to 10 nM; inactive = 1 nM or less; a few of its hits are not listed in these tables; also: highest value over a series up to 38 µM
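Compounds in 100 mM Tris buffer, pH 8.0, incubated 15 min at room temperature, then read with 547 nm excitation and 598 nm emission filters. Fluorescence was converted to dye-equivalent concentration using an on-plate six-point resorufin standard curve.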
A488 autofl = compound fluoresces in the A488 spectral region; 0.1% of 59,000 active; compound autofluorescence, A488 spectral region, dye equivalency; hits give high values; max dye equivalency, M; active = above 10 nM dye equivalent; inconclusive = 1 to 10 nM; inactive = 1 nM or less; about half of its hits are not listed in these tables;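 also: highest value over a series up to 38 µM; compound alone in buffer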
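Compound autofluorescence was read in 100 mM Tris pH 8.0 after 15 min at room temperature, ex 480 nm/em 540 nm. Intensities were converted to A488 dye-equivalent concentration using an on-plate six-point A488 standard curve.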
A647 autofl = A647 region autofluorescence; max dye-equivalent concentration, M; AID 592; 59,000 tested, under 10 active; Compound fluorescence, A647 channel (570/671 nm), Tris buffer; active means above 1 µM dye equivalent; inconclusive means 0.1 to 1 µM; inactive means 0.1 µM or less;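 also: values scaled relative to a standard on each plate; highest value over a series up to 38 µM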
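Each compound's intrinsic fluorescence at 570 nm excitation and 671 nm emission is measured across its concentration series in 100 mM Tris, pH 8.0, after 15 min at room temperature, and reported relative to an A647 curve.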
* = called active by the depositor; i = inactive; u = inconclusive; x = not tested or not shown; & = joins results of further samples; [ ] = dose if it differs, or a comment. Some of the compounds tested (hit frequency here may not be typical).

SMILES,AID923,TSHR agonist,Resorufin autofl,A488 autofl,A647 autofl
CC(=O)/C(C(=N)N1CCN(C(c2ccccc2)c2ccccc2)CC1)=C(\C)O,0.3%,1%,x,x,x
COc1cc2c(cc1OC)CN(C(=O)c1cc(S(=O)(=O)N3CCOCC3)ccc1Cl)CC2,1.5%,u,i,i,1.2e-08
COc1ccc(S(=O)(=O)N(CC(N)=O)C2CCCCC2)cc1Cl,-0.8%,-10%,i,i,1.7e-08
CC(=O)c1c(N2CCCCC2)nc(=S)n(Cc2ccccc2)c1C,0.4%,3%,x,x,x
Cn1c(=O)[nH]c(=O)c2c1nc(CN1CCOCC1)n2Cc1ccc(F)cc1,-2.7%,-4%,x,x,x
CN(C(=O)COc1cc(=O)n(C)c2ccccc12)c1ccc(Cl)cc1,-1.0%,4%,x,x,x
Cc1ccc(-c2nnc(N(C)C(=O)c3ccncc3)s2)cn1,-1.7%,u,i,i,2.1e-08
Cc1ccnc(N2CCCC(C(=O)Nc3nnc(C)s3)C2)n1 (stereo not given),-1.2%,0%,i,i,5e-09
Cc1cc(C(=O)CSc2nc3ccccc3n2CCC#N)c(C)n1Cc1cccs1,1.4%,u,i,i,3.5e-08
CCCN1C2CCCC1CC(NC(=O)NC1CCCCC1)C2 (stereo not given),-1.0%,4%,i,i,1e-09
O=C(COc1ccccc1)Nc1ccc(-c2nnc(-c3ccco3)o2)cc1,x,x,i,i,5.5e-08
CCOC(=O)c1c(C)n(C)c2ccc(O)c(S(=O)(=O)c3ccccc3)c12,x,x,i,i,3.6e-09
CCC(=O)N1CCc2cc(S(=O)(=O)NC(CC(C)C)C(=O)N3CCc4ccccc43)ccc21 (stereo not given),0.9%,21%,i,i,2.9e-08
COc1ccc(OC)c(C(=O)c2coc3ccc(OC)cc23)c1,0.9%,u,x,x,x
O=S(=O)(NC1CC2CCC1C2)c1ccc2c(c1)OCCO2 (stereo not given),-1.3%,7%,i,i,4.2e-08
CCCSc1nnc(Cn2c(=O)sc3ccccc32)n1C,1.6%,2%,x,x,x
O=C(CNS(=O)(=O)c1ccc(Br)s1)N1CCCC1,-0.5%,u,i,i,4.9e-09
Cc1ccc2c(c1)sc1ncc(NC(=O)c3ccccc3)c(=O)n12,-2.0%,5%,i,i,1e-09
N#Cc1cc2ccccc2nc1SCc1cccnc1,-0.2%,u,i,i,3.5e-09
CCOC(=O)Cc1csc(NC(=O)c2c(-c3ccccc3)noc2C)n1,5.3%,-6%[11.4 µM],x,x,x
O=C(O)c1cc(NC(=O)C2CCCO2)cc(NC(=O)C2CCCO2)c1 (stereo not given),2.6%,2%,i,i,3.5e-09
Cc1nnc(Nc2ccccn2)c2ccccc12,0.3%,5%,i,i,6.4e-09
O=C(NC1CCCCC1)n1c(=O)oc2cc(S(=O)(=O)N3CCCCC3)ccc21,12%,-2%,i,i,5.8e-09
O=C(CC(NS(=O)(=O)c1ccc(Cl)cc1)c1ccco1)NC1CCCC1 (stereo not given),-1.3%,u,i,i,2.5e-08
CC1(C)Cc2ccccc2-c2nnc(SCc3ccc(C#N)cc3)n21,0.1%,u,i,i,4.3e-08
COc1ccc2cc(CN(CC3COCCO3)S(=O)(=O)c3ccccc3)c(=O)[nH]c2c1 (stereo not given),-1.6%,-6%,i,i,5.2e-08
CN(C(=O)C12CC3CC(CC(C3)C1)C2)C1CCS(=O)(=O)C1 (stereo not given),1.1%,4%,x,x,x
CCC1=C/C(=C\c2ccc3c(c2)OCO3)C(=O)S1,1.3%,3%[11.4 µM],i,i,1.8e-08
O=S(=O)(CCCc1ccccc1)c1ncn[nH]1,2.1%,10%,i,i,1e-08
Cc1nc2ccccc2c2oc(C(=O)NCCCN3CCCC3=O)cc12,-2.2%,-8%,x,x,x
Cc1cc2ccccc2c(=O)n1CC(=O)Nc1ccc2c(c1)OCCO2,0.3%,2%,i,i,4.4e-09
Cc1ccc2nsnc2c1N(S(C)(=O)=O)S(C)(=O)=O,-0.6%,-1%,i,i,2.8e-08
O=C(Nc1cccc(C(F)(F)F)c1)C1CCCN(c2ncccn2)C1 (stereo not given),-0.5%,u,i,i,3.8e-08
CC(C)(C)n1ncc2c(=O)n(CC(=O)Nc3ccc4c(c3)OCCO4)cnc21,-0.7%,1%,i,i,5.9e-09
CCC(C)NC(=O)c1cn(C)c(=O)c2cc(OC)c(OC)cc12 (stereo not given),0.9%,-5%[11.4 µM],i,i,3.7e-08
CC1=CC(=C2N=C(c3ccccc3)OC2=O)C=C(C)O1,1.6%,0%,x,x,x
O=C(O)CCCC(=O)Nc1ccccc1-n1ccnc1,-0.1%,0%,i,i,4.3e-09
COc1ccc(CNC(=O)CSc2nnnn2-c2ccc(O)cc2)cc1,-0.4%,5%,i,i,6.4e-09
CN1C=CC=C/C1=C1\SC(=S)N(C2CCCCC2)C1=O,-1.0%,-25%[11.4 µM],x,x,x
Cc1cc(C)nc(NS(=O)(=O)c2ccc(NC(=O)Cn3c(=O)oc4ccccc43)cc2)n1,-1.5%,0%,x,x,x
COc1ccc(CNC(=O)Cn2cc3c(n2)CCCCC3)cc1,-3.5%,8%,x,x,x
Cc1cc(=O)n(CCc2ccccc2)c(O)c1C#N,0.8%&5.2%,u,i,i,1.7e-08&1.5e-08
Cc1cc(OCc2nn[nH]n2)c2c(C)c(CC(=O)O)c(=O)oc2c1,-0.4%,4%,i,i,3.7e-09
Cc1cc(-c2csc(NC(=O)c3cc4ccccc4o3)n2)c(C)n1C,-0.6%,-10%,i,i,1e-09
O=C(c1ccccc1-c1nc(-c2ccc(Cl)cc2)no1)N1CCCC1,1.4%,9%,i,i,2.1e-08
Nc1ccc(Nc2ccccc2N)cc1,0.3%,-19%,i,i,1.4e-08
COc1ccc(OC)c(S(=O)(=O)n2cnc3cc(C)c(C)cc32)c1,2.7%,u,x,x,x
CCCSc1nnc(CN2CCOCC2)n1C,1.2%,-14%,i,i,3.6e-09
CCc1ccc(NC(=O)CSc2nnc(Cc3cccn3C)n2-c2ccc(F)cc2)cc1,0.2%,0%,x,x,x
CCOC(=O)N1CCN(C(=O)Cn2c(C)cc3ccccc3c2=O)CC1,1.0%,0%,i,i,1e-09
Oc1ccccc1OCc1nc2ccccc2s1,-1.4%,-4%[11.4 µM],x,x,x
OC[C@H](S)CS,-0.6%[11.5 µM],-2%[11.4 µM],i,i,1e-09
COc1ccc(OC)c(NC(=O)Cn2c(-c3ccc(Cl)cc3)noc2=O)c1,-0.3%,-4%,i,i,1.1e-08
O=C(Nc1nc(-c2nc3ccccc3s2)cs1)C1COc2ccccc2O1 (stereo not given),-1.0%,u,x,x,x
CSc1nnc2n(-c3ccc(C)cc3)c(=O)c3c4c(sc3n12)COC(C(C)C)C4 (stereo not given),-2.6%,-1%,x,x,x
CNC(=O)[C@H](C)/C=C/C(NC(=O)OCc1ccccc1)c1ccc(C(=O)OC)cc1 (stereo not given in full),7.8%,5%,x,x,x
CCn1c(=O)cc(OCC(=O)N(C)C2CCCCC2)c2ccccc21,-0.2%,-2%[11.4 µM],i,i,1e-09
O=C(CC12CC3CC(C1)CC(CC(=O)N1CCCC1)(C3)C2)N1CCCC1,1.7%,10%,x,x,x
CC(=O)c1c(N2CCCCC2)nc(=S)n(-c2ccccc2)c1C,0.5%,7%,x,x,x
CCC(=O)c1cc(F)c(N2CCN(S(=O)(=O)c3ccc(C)cc3)CC2)cc1C,1.9%,1%[11.4 µM],x,x,x

A stretch taken from the entries so far, as a working copy:
SMILES,AID923,TSHR agonist,Resorufin autofl,A488 autofl,A647 autofl
CCn1c(=O)cc(OCC(=O)N(C)C2CCCCC2)c2ccccc21,-0.2%,-2%[11.4 µM],i,i,1e-09
O=C(CC12CC3CC(C1)CC(CC(=O)N1CCCC1)(C3)C2)N1CCCC1,1.7%,10%,x,x,x
CC(=O)c1c(N2CCCCC2)nc(=S)n(-c2ccccc2)c1C,0.5%,7%,x,x,x
CCC(=O)c1cc(F)c(N2CCN(S(=O)(=O)c3ccc(C)cc3)CC2)cc1C,1.9%,1%[11.4 µM],x,x,x

The list continues:
SMILES,AID923,TSHR agonist,Resorufin autofl,A488 autofl,A647 autofl
COc1ccc(NC(=O)CC2SC(=NCc3ccccc3OC)NC2=O)cc1 (stereo not given),-1.3%,u,i,i,1.8e-08
O=c1c2cn[nH]c2[nH]c(=S)n1-c1ccccc1F,0.6%,-8%,i,i,3.9e-08
CCOC(=O)CSC(C)C(=O)Nc1nnc(C(C)C)s1 (stereo not given),-1.4%,-6%,x,x,x
COc1ccc(OC)c(-c2cc(C(=O)NCc3ccco3)no2)c1,-2.3%,6%,i,i,4e-09
O=C(NC1CCCCCCC1)c1c(O)c2ccccc2[nH]c1=O,-0.1%,3%,x,x,x
CC(=O)C1=C(O)C(=O)N(Cc2cccnc2)C1c1ccccc1 (stereo not given),-1.3%,1%,i,i,3.8e-08
Nc1nc2ccc(N3CCOCC3)cc2s1,0.0%,-2%,i,i,3.1e-08
COc1ccc(Nc2nc(N)nc(CN3CCN(c4ccccn4)CC3)n2)cc1,-0.7%,-25%,i,i,3.1e-08
CC(C)NC(=O)CCNC(=O)c1ccc(F)cc1,4.5%,-8%,i,i,1e-09
O=C(NCC1CCCO1)c1cccs1 (stereo not given),-1.9%,-4%,x,x,x
CCOC(=O)c1oc2cccc(O)c2c1CN(Cc1ccccc1)C(C)=O,-1.0%,u,x,x,x
c1ccc(Cn2nnc3c(N4CCOCC4)ncnc32)cc1,-1.7%,8%,x,x,x
Cc1cc(C)nc(SCC(=O)O)n1,0.2%,19%,i,i,4.3e-09
Cc1ccc(Cn2nnc3c(=O)[nH]c(C4CCN(S(=O)(=O)c5ccc(C)cc5)CC4)nc32)cc1,0.9%,6%,i,i,1.5e-09
CCOC(=O)C1CCCN(CCC(=O)Nc2cccc(F)c2)C1 (stereo not given),2.8%,20%,i,i,1e-09
Cc1ccc(-c2nc3ccccc3[nH]2)s1,3.8%,18%,x,x,x
Cc1[nH]c(C)c(C(=O)O)c1CNC1CCCCC1C (stereo not given),0.2%,u,i,i,1e-09
COC(=O)C1=C(N)OC2=C(C(=O)CC(C)(C)C2)C1c1cccs1 (stereo not given),-2.5%,u,x,x,x
CC1(C)Cc2c(sc3c2c(=N)n(Cc2ccco2)c(=O)n3Cc2ccccc2)CO1,-0.7%,20%,i,i,1.2e-08
Cc1cccc(NS(=O)(=O)c2ccc(Oc3ccccc3)cc2)n1,0.1%,7%,i,i,1e-09
O=S(=O)(NC1CCCCCCC1)c1cccs1,1.0%,10%,i,i,3.9e-08
CN1CCN(C(=O)CN(Cc2ccc(Cl)cc2)S(C)(=O)=O)CC1,-0.3%,-8%,i,i,4.3e-08
CC(O)/C=C/c1ccc2ccccc2n1 (stereo not given),0.0%,3%,x,x,x
CN(c1ccc(C(=O)Nc2nccs2)cc1)S(=O)(=O)c1ccccc1,-3.0%,u,i,i,8.1e-09
CSc1ccn(CCC(=O)O)c(=O)n1,-3.4%,-1%,i,i,2.2e-09
